Rango complex inh – Rango-importin beta binding inhibition | Q14974 | Rango CFP/YFP FRET sensor + importin beta, 45 min | Potency, µM (top dose mostly 92.2 µM), for inactives: at the highest dose inhibition of complex formation | 340,000 tested, 0.031% active | AID 540263; active = rising FRET ratio curve, often small or poorly fitted; inconclusive = mostly compound fluorescence or quenching in the first reads; inactive = flat curves in all reads;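 note: potency is the fitted concentration of half-maximal effect; 0% = DMSO wells and 100% = buffer wells lacking importin beta; nearly all actives have a fitted effect of over 15% in size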
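FRET biosensor (snurportin 1 IBB flanked by EYFP and cerulean), 50 nM, with compound 5 min, then 0.125 microM importin beta in PBS, 1 mM DTT, 0.02% Tween-20, 0.1% BSA. CFP/YFP ratio read after 45 min at room temperature; pre-read flags interference.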
miR-21 reporter – raises the signal of a miR-21 reporter; HeLa miR-21 FLuc reporter, luciferase, 48 h; Potency, µM (series often up to 38.3 µM), inactives show at the highest dose reporter change, positive = more light; 340,000 tested, under 10 active; AID 2288; active = well fitted rising curve with a large enough effect; inconclusive = small, poorly fitted or top-dose-only effect; inactive = no such curve, though single readings can be large or run the other way;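 note: % of control where 0% means no effect; miR-21 action dims this reporter so a rising signal means less miR-21 action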
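Compounds were titrated across several concentrations (up to approximately 40 uM) and incubated 48 hours with HeLa miR-21-FLuc reporter cells (miR-21 target sequence downstream of FLuc, endogenous miR-21). Readout was firefly luciferase luminescence after lytic detection reagent.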
GLA inh pH 4.5 – alpha-galactosidase A (human) inhibition, pH 4.5; P06280; purified enzyme, 4-MU-alpha-Gal fluorescence, pH 4.5; activity change, negative = inhibition, % at 105 µM; 230,000 tested, under 10 active; AID 1467; inconclusive = small, poorly fitted or top-dose-only inhibition, or a rising curve; inactive = flat fitted curve, though single readings scatter; no compound was filed as active;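 note: 0% = full activity with enzyme and -100% = basal without enzyme; dose as in the result columns while the protocol names 77 µM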
Target sequence (P06280 whole entry, looked up): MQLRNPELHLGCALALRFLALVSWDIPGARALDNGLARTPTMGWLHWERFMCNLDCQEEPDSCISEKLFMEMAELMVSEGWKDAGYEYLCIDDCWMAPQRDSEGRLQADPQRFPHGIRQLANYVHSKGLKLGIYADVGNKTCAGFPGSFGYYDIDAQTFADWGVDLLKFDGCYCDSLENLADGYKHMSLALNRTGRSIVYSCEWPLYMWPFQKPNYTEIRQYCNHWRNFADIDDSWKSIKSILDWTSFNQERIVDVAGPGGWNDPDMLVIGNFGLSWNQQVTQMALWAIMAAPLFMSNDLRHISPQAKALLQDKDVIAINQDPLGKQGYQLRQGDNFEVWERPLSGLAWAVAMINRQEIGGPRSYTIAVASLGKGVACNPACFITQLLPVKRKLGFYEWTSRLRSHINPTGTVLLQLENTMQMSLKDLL
Rango dissoc inh – prevents RanGTP from dissociating the Rango-importin beta complex; O95149+P62826; 340,000 tested, 0.071% active; Biochemical FRET Rango-importin beta, RanGTP-induced dissociation; Potency, µM (series often up to 46.1 µM), inactives show at the highest dose activity change, negative = inhibition; active means falling FRET ratio curve, often poorly fitted, with flat reads before Ran was added; inconclusive means other falling curves, or compound fluorescence or quenching; inactive means flat or rising ratio curve;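 note: potency is the fitted concentration of half-maximal effect; % of control where 0% means no effect; nearly all actives have a fitted effect of over 45% in size; -100% = wells without RanGTP and RCC1; the record marks most hits as doubtful in a second field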
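Compounds sat 5 min at room temperature with 0.1 uM Rango biosensor plus 0.25 uM importin beta, then FRET pre-read. RanGTP-RCC1 (0.6 uM Ran, 2mM GTP, 0.2 uM RCC1) added for 45 min, and the CFP/YFP post-read measured blocked complex dissociation.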
* hit, by the source's call; ? = inconclusive; . = not tested or not shown; & = joins results of further samples.

Under each structure: Rango complex inh, miR-21 reporter, GLA inh pH 4.5, Rango dissoc inh
CCOc1ccc(N(CC(=O)Nc2cc(C)ccc2C)S(=O)(=O)c2c(C)[nH]c(=O)[nH]c2=O)cc1
 : 2.7%, -2%&-5%, -3, -4%
COC(=O)C(C)Oc1ccc2c3c(c(=O)oc2c1)CCCCC3 (stereo not given)
 : 1.6%, -5%, 4, 5%
O=C(N/N=C/c1c(O)n(-c2ccc(Cl)cn2)c(=O)c2ccccc12)C1CC1
 : ?, 13%, 6, ?
COc1cc(C(=O)NC(=S)Nc2ccccc2N2CCCC2)cc(OC)c1OC
 : -0.2%, 14%, ., 7%
Cc1ccc(C)c(NC(=O)C2Cc3ccccc3CN2C(=O)OCc2ccccc2)c1 (stereo not given)
 : -2.4%, -6%, -17, -2%
COC1CC(C)C(OC)c2cc(O)cc(c2O)NC(=O)C(C)=CC=CC(C)C(OC(N)=O)C(C)=CC(C)C1OC (stereo not given)
 : -4.6%, ., ., 0%
COc1ccc(Cc2nc3ccccc3n2CC(=O)N/N=C/c2ccc(C)cc2O)cc1OC
 : -4.3%, 0%, 1, -15%
COC(=O)c1cc(OC)c(OC)cc1NC(=O)c1ccc(Br)o1
 : -3.3%, ., ., -14%
O=C(NC(=S)NCCN1CCOCC1)c1ccccc1Br
 : -0.2%, -9%, 0, 5%
COc1cc(/C=N/N2CCN(c3ccc(Cl)cc3)CC2)cc(OC)c1OC(C)=O
 : 2.0%, 2%, ., -15%
S=C(NCCc1ccncc1)Nc1ccccc1
 : -7.4%, 1%, 13, -6%
O=C(CCC(=O)NNC(=O)c1ccc([N+](=O)[O-])cc1)NCc1ccccc1
 : -0.5%, 1%, -1, 1%
CCCc1[nH]nc2c1C(c1ccc(Br)s1)C(C#N)=C(N)O2 (stereo not given)
 : -2.2%, 25%, 6, 4%
Cc1ccc2cccc(NC(=S)NC(=O)c3ccccc3)c2n1
 : -4.7%, -15%, 5, -1%
O=C(CSc1nnnn1-c1ccccc1)NCc1ccco1
 : -4.2%, -7%, 6, -1%
CO/N=C/C(=N\Nc1ccc(C)cc1)C(=O)c1ccc(OC)cc1
 : 0.2%, 14%, 1, 0%
O=S(=O)(NCC1CCN(S(=O)(=O)c2ccccc2)CC1)c1ccccc1
 : 6.2%, 2%, -6, 12%
c1ccc(-c2cccs2)nc1
 : -0.2%, -2%, -10, -4%
Cc1cc(=O)oc(C)c1C(=O)NCCC(C)C
 : -0.3%, -3%, 4, 2%
CN(CC(=O)Nc1c(Cl)cccc1Cl)C(=O)c1cc2ccccc2cc1O
 : 6.0%, ., ., -8%
CCC(C)(C)n1nnnc1C(c1ccncc1)N1CCC(Cc2ccccc2)CC1 (stereo not given)
 : -2.2%, 7%, -7, -12%
O=C(Nc1ccccc1C(F)(F)F)c1ccsc1
 : 0.8%, -1%, ., 1%
Cc1cc(C)c(C)c(S(=O)(=O)Nc2ccc(C(=O)N3CCCC3)cc2)c1C
 : -2.8%, 3%, ., 5%
C[C@H]1O[C@@H](O[C@H]2CC[C@@]3(C)C(CC[C@]4(C)C3C=CC3=C5CC(C)(C)CC[C@]5(CO)[C@H](O)C[C@]34C)[C@]2(C)CO)[C@H](O)[C@@H](O[C@@H]2O[C@H](CO)[C@@H](O)[C@H](O)[C@H]2O)[C@H]1O (stereo not given in full)
 : 0.2%, ., ., -6%
COc1ccccc1OCC(=O)NCCNC(=O)COc1ccccc1OC
 : -2.4%, -3%, 12, -5%
O=C(CCc1ccccc1)NC1CCCc2ccccc21 (stereo not given)
 : 2.2%, 5%, ., -5%
COCCn1nnnc1C(c1ccc(O)c(OC)c1)N1CCc2ccccc2C1 (stereo not given)
 : 9.4%, 1%, 4, -9%
OCCC1CN(Cc2cccn2-c2ncccn2)CCN1CCc1ccccc1 (stereo not given)
 : -2.1%, 0%, 6, -9%
CCOc1ccc(S(=O)(=O)NC(C)C(=O)NC2CCCC2)cc1 (stereo not given)
 : -0.7%, -1%, ., -10%
CCOC(=O)C1=C(COC(=O)c2cc(OC)c(OC)c(OC)c2)NC(=O)NC1C (stereo not given)
 : 0.6%, ., ., 2%
COC(=O)COc1ccc(C2Nc3c(Cl)ccc(C(=O)O)c3C3C=CCC32)cc1 (stereo not given)
 : ?, 0%, 3, -4%
Cc1ccc(-c2c[n+](=O)c3c(n2[O-])CCC3)cc1
 : 0.0%, 4%, -11, -13%
Cc1cc(=O)[nH]c2c1c(-c1ccccc1)nn2C
 : -0.2%, -4%, 5, 2%
Nc1c(C2CCCCC2)c(=O)on1C(=O)c1ccccc1
 : 2.8%, ., ., 0%
O=C(NCCNC(=O)c1cnccn1)c1ccc(Cl)cc1
 : -0.8%, 3%, ., -1%
O=C(OCCN=C1NS(=O)(=O)c2ccccc21)c1ccco1
 : 0.0%, 4%, 9, -15%
COc1ccc(CCNc2nc(N3CCOCC3)nc(N3CCOCC3)n2)cc1OC
 : -0.7%, -7%, 6, 3%
COc1ccc(CNCC(O)COc2ccc(C(C)(C)c3ccccc3)cc2)cc1 (stereo not given)
 : 3.3%, ?, ., -10%
O=c1c2ccccc2nc2n1CCCCC2
 : -1.2%, -5%, -8, -15%
CC(=O)C1=C(C)N(CC2CC2)C(=O)N[C@H]1c1ccccc1
 : -1.7%, 0%, -2&-4, -2%
CCOc1ccc(S(=O)(=O)N2CCN(C(=O)c3ccccc3Cc3ccccc3)CC2)cc1
 : -1.2%, ., ., 2%
Cc1ccc(NC(=O)C2CC2c2ccccc2)c([N+](=O)[O-])c1 (stereo not given)
 : -3.2%, -47%, ., -8%
CCOC(=O)c1ccccc1NC(=O)CSc1nnc(Cc2cccn2C)n1-c1ccc(C)cc1
 : -0.2%, -6%, -3, 5%
O=C(NC(c1ccccc1)c1ccccc1)c1ccc(=O)[nH]n1
 : 2.3%, -11%, 1, 8%
CC(C)(C)n1nc2c(c1NC(=O)COc1ccc(F)cc1)CS(=O)(=O)C2
 : -4.7%, 0%, ., 6%
COc1ccc(OCC(O)CN(CC(O)COc2ccc(OC)cc2)c2cccc(O)c2)cc1 (stereo not given)
 : 0.6%, 29%, ., -20%
Cc1ccccc1CN(c1ccc(C(=O)NCc2cccnc2)cc1)S(C)(=O)=O
 : -2.2%, 5%, -1, -26%
NC(=O)c1cc2nc(-c3ccco3)cc(C(F)(F)F)n2n1
 : ?, -19%, 1, ?
Cc1cc(SCC(=O)N(C)C2CCCCC2)nc2ccccc12
 : -0.3%, ., ., -3%
COc1ccc(NC(=S)NC(=O)CC(C)C)c(OC)c1
 : -3.6%, -32%, 0, -5%

Remaining list, next part
Under each structure: Rango complex inh, miR-21 reporter, GLA inh pH 4.5, Rango dissoc inh
CC(OC(=O)c1ccc2c(c1)S(=O)(=O)c1ccccc1C2=O)C(N)=O (stereo not given)
 : -1.8%, 5%, ., 9%
CCCc1[nH]n(-c2nc3ccccc3s2)c(=O)c1C=NCC(C)C
 : 4.9%, 0%, -1, -10%
O=c1ccc2cc3c4c(c2o1)CCCN4CCC3
 : ?, 4%, 1, ?
Cn1nc(C(F)(F)F)c(/C=N/OCc2c(Cl)cccc2Cl)c1Cl
 : 6.3%, 0%, 4, 10%
O=C(NC1CCCCC1)N(Cc1cc2cc3c(cc2[nH]c1=O)OCCO3)C1CCCCC1
 : -0.1%, -1%, -6, 8%
COc1cc(NS(=O)(=O)c2ccc(NC(=O)c3ccc(S(=O)(=O)N4CCCC4)cc3)cc2)ncn1
 : ., -1%, 3, .
CN(C)S(=O)(=O)c1ccc(NC(=O)CCNC(=O)c2ccc([N+](=O)[O-])cc2)cc1
 : 4.4%, 2%, 4, 1%
COc1ccc(N2C(=O)CC(SCc3ccc(Cl)cc3)C2=O)cc1 (stereo not given)
 : 3.3%, 7%, 3, 13%
Cc1ccc2ccc[n+](Cc3ccccc3)c2c1
 : -0.2%, ., ., 4%
COc1ccc(C(=O)COC(=O)CNC(=O)c2cc(OC)cc(OC)c2)cc1
 : 2.3%, -1%, 0, 2%
NC(=O)Nc1ccc(C(=O)OCC(=O)c2c[nH]c3ccccc23)cc1
 : -1.2%, ., ., -13%
Cc1ccc(N2CC(C(=O)NCCS(=O)(=O)N3CCN(c4ccccc4)CC3)CC2=O)cc1C (stereo not given)
 : 6.6%, 1%&4%, ., ?
CCS(=O)(=O)N1CCC(C(=O)NCCCOC)CC1
 : 1.0%, -6%, 4, 11%
CCCCOc1ccc(CSc2ncn[nH]2)cc1
 : 4.5%, -17%, 3, 10%
CCCCN(CCCC)CC(O)CN(c1cc([N+](=O)[O-])ccc1OC)S(=O)(=O)c1ccccc1 (stereo not given)
 : 3.2%, 9%, -17, 1%
CCOc1ccc(C(=O)NCC(c2ccco2)N2CCOCC2)cc1 (stereo not given)
 : -3.5%, ., ., 17%
CC(C)NC(=O)c1ccccc1S(=O)c1ccccc1C#N (stereo not given)
 : -2.9%, -4%, 0, 3%
O=C(Cc1cccs1)N/N=C/c1ccccc1
 : -2.1%, -42%, -8, -7%
CC1CCCC/C1=N/Nc1ccc([N+](=O)[O-])cc1[N+](=O)[O-] (stereo not given)
 : 0.1%, 1%, 1, 3%
COc1ccc(N2CCN(CCCn3c(=S)[nH]c4ccccc4c3=O)CC2)cc1
 : -0.7%, 0%, ., 9%

Three compounds already listed, ordered by length of the SMILES, rising:
Under each structure: Rango complex inh, miR-21 reporter, GLA inh pH 4.5, Rango dissoc inh
CCS(=O)(=O)N1CCC(C(=O)NCCCOC)CC1
 : 1.0%, -6%, 4, 11%
CC(C)NC(=O)c1ccccc1S(=O)c1ccccc1C#N (stereo not given)
 : -2.9%, -4%, 0, 3%
CCCCN(CCCC)CC(O)CN(c1cc([N+](=O)[O-])ccc1OC)S(=O)(=O)c1ccccc1 (stereo not given)
 : 3.2%, 9%, -17, 1%

Going on with the list:
Under each structure: Rango complex inh, miR-21 reporter, GLA inh pH 4.5, Rango dissoc inh
CC(C)(C)OC(=O)COc1cc(OCC(=O)OC(C)(C)C)c2c(=O)cc(-c3ccccc3)oc2c1
 : 1.4%, ?, ., 17%
CN(C)c1ccc(/C=N/NC2=NS(=O)(=O)c3ccccc32)cc1
 : ?, 0%, ., ?
O=C(NCC(c1ccco1)N1CCCCC1)c1ccc2c(c1)S(=O)(=O)c1ccccc1C2=O (stereo not given)
 : -2.4%, 8%, -8, -19%
CCCSc1ccc(C(=O)Nc2ccc(Cl)cc2)cn1
 : 0.9%, -16%, 5, -4%
CCN(CC)S(=O)(=O)c1ccc(OC)c(NC(=O)Cn2cnc3c2c(=O)n(C)c(=O)n3C)c1
 : 0.9%, -8%, 5, -4%
Cc1ccc(C(=O)NCCN2C3=NC[C@H](C)N3C[C@H]2Cc2ccc(O)cc2)cc1Br
 : -4.3%, 4%, 8, -12%
CC1CN(C(=O)c2ccc(S(=O)(=O)Nc3ccccc3F)cc2)CC(C)O1 (stereo not given)
 : -3.9%, ., ., -25%
CCOc1ccc(OCCOc2ccc(/C=C/C(=O)O)cc2OCC)cc1
 : -1.1%, -3%, ., 11%
NC(=O)c1nsc(C(=O)N(c2ccccc2)C(C(=O)NCC2CCCO2)c2cccs2)c1N (stereo not given)
 : -2.3%, 0%, 5, -14%
O=C(NCC(c1ccco1)N1CCOCC1)c1ccc([N+](=O)[O-])cc1 (stereo not given)
 : -4.3%, -1%, 9, -15%
C#CCOCCOCCOCCNc1nc(N2CCN(C(=O)[C@H](CCCCN)n3cc(CN)nn3)CC2)nc(N2CCN(C(=O)[C@H](CCC(=O)O)n3cc([C@@H](N)CCCCN)nn3)CC2)n1
 : 14%, ., ., -11%
CCOC(=O)Cc1csc(NC(=O)c2sc3nc4ccc(CC)cc4cc3c2N)n1
 : ?, -48%, -4, ?
CC1CCN(S(=O)(=O)c2ccc(NC(=O)CSc3ncccc3C(=O)O)cc2)CC1
 : -1.5%, 0%, -8, -7%
CCC(C(=O)OC)n1cnc2c(oc3ccccc32)c1=O (stereo not given)
 : 1.5%, -11%, ., -7%

Compound activity deposited in PubChem by National Center for Advancing Translational Sciences (NCATS).

Only part of the results is shown, so the mix of outcomes need not match the whole.
